NPYLR7 ag: mosquito NPYLR7 agonism; HEK293T NPYLR7/Galpha15, GCaMP6s calcium fluorescence; activation, % at 10 µM; 0.15% of 270,000 active; in the data active means activation above about 40%;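 further: 0% = vehicle and 100% = reference agonist at the receptor; some compounds past the cut are filed as inactive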
NPYLR7 ag max-min: also measured in NPYLR7 ag; calls as there; activation, %; measured here: Max-Min RFU normalised activation; some inactives read as strong as hits;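 span of the calcium signal over five minutes; 0% = vehicle and 100% = native peptide agonist; compound fluorescence can raise it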
Active calls of the source: *; & = joins results of further samples. Not all compounds are listed; the hit share may differ from the screen's.

SMILES	NPYLR7 ag	NPYLR7 ag max-min
O=C1OCCC1N1CCC(c2ccnn2CCO)CC1 (stereo not drawn)	5	4
CCCC1C(C)CCCN1C(=O)c1ccc(Cl)s1 (stereo not drawn)	4	2
CC1(C(=O)Nc2nccs2)CCN1C(=O)CC(c1ccccc1)c1ccccc1 (stereo not drawn)	8	5
COc1cccc(C(=O)N(CCN2CCOCC2)Cc2nccn2Cc2ccc(Cl)cc2Cl)c1	0	7
COCc1c(C(=O)Nc2cccc(C(=O)OC)c2)oc2ccccc12	5	4
Cc1nn(-c2ccc(N3CCN(C(=O)c4cc(F)c(F)cc4Cl)CC3)nn2)c(C)c1C	-4	-10
CCC(=O)C1=C(c2ccc(C(C)(C)C)cc2)N(C(=O)CC)n2cnnc2S1	3	-2
COc1ccccc1NC(=O)CSc1nc(N)c(NC(=O)c2ccc(C)cc2)c(=O)[nH]1	-3	-1
CCN(CC)CCCn1c(SCC(=O)NCCCOC)nc2ccccc2c1=O	-1	-4
Cc1nc(C)n(CC2CN(C(=O)C3CCCN(C(=O)C(C)C)C3)CCO2)n1 (stereo not drawn)	4	7
CC(C)CCC(C)NC(=O)c1cc2c(cc1Cl)N1CCCCCC1=NS2(=O)=O (stereo not drawn)	9	3
CC(C)(C)C(=O)CSc1nnc(Cn2ccc(=O)[nH]c2=O)o1	-4	5
Cc1cc(C)n2c(NC(C)(C)CC(C)(C)C)c(-c3cccc(C)n3)nc2c1	15&-6	29&-5
O=C(Nc1ccc2c(c1)OCO2)N1CCN(C(c2ccccc2)c2ccc(Cl)cc2)CC1 (stereo not drawn)	0	4
Cc1nnsc1CN(C)Cc1ccc(-n2cncn2)cc1	4	1
COc1cc2c(cc1OC)C(c1c(F)cccc1Cl)N(C(=O)c1ccc(SC(F)(F)F)cc1)CC2 (stereo not drawn)	24	7
COc1cccc(Cc2nsc(N3CCC(C(=O)NCCc4ccc(OC)c(OC)c4)CC3)n2)c1	-2	-8
Cc1cc(C)n(CC2(CNC(=O)c3ccc(-c4ccn[nH]4)cc3)CC2)n1	5	-5
COC(=O)C(CC(C)C)NC(=O)c1ccc(Cl)c(S(=O)(=O)N2CCCCCC2)c1 (stereo not drawn)	5	-1
C=C(C)C(O)(C(=C)C)c1ccc(CN(Cc2ccco2)Cc2ccc(C)s2)o1	0	6
CC(C)(C)c1nn2cnnc2n(/N=C\c2ccc(Cl)cc2Cl)c1=O	5	1
CCNC(=O)NC(=O)CN1CCCC(N(C)C(=O)OC(C)(C)C)C1 (stereo not drawn)	3	2
CC(CC(=O)Nc1nc2c(s1)COCC2)C(=O)c1cccc(F)c1 (stereo not drawn)	-2	12
COc1cccc(CN2C(=O)N(CCC(C)C)C3(CCN(Cc4ccsc4)CC3)C2=O)c1	22	8
Cc1[nH]c2ccccc2c1C(=O)C(C)OC(=O)Cn1[nH]c(=O)c2ccccc2c1=O (stereo not drawn)	2	8
COc1cccc(C(=O)n2cnnc2N)c1OC	14	5
CCOC(=O)c1ccc2c(c1)nc(SCc1cc(F)c(F)cc1F)n2CCCOC(C)C	6	4
Cc1nn2c(N3CCCC3)cc(C(C)(C)C)nc2c1-c1ccccc1	-6	-6
O=C(NCC(F)(F)F)c1cncn1-c1cccc(-c2ccc(Oc3ccccc3)cc2)c1	1	0
CCCc1nc(N(C)Cc2ccnc(C)c2)c2cnn(C)c2n1	0	-4

Copied from the list:
In NPYLR7 ag max-min, Cc1nn2c(N3CCCC3)cc(C(C)(C)C)nc2c1-c1ccccc1 has the entry -6
In NPYLR7 ag max-min, COC(=O)C(CC(C)C)NC(=O)c1ccc(Cl)c(S(=O)(=O)N2CCCCCC2)c1 (stereo not drawn) has the entry -1
In NPYLR7 ag max-min, CCCc1nc(N(C)Cc2ccnc(C)c2)c2cnn(C)c2n1 has the entry -4
In NPYLR7 ag max-min, COc1cc2c(cc1OC)C(c1c(F)cccc1Cl)N(C(=O)c1ccc(SC(F)(F)F)cc1)CC2 (stereo not drawn) has the entry 7

The listing continues.
SMILES	NPYLR7 ag	NPYLR7 ag max-min
Clc1ccc(Nc2c(-c3c[nH]c4ccccc34)nc3cnccn23)cc1	1	-1
COc1ccc(NC(=O)N2CCN(CCCOC(c3ccc(Cl)cc3)c3ccc(Cl)cc3)CC2)cc1	3	9
CCCCNC(=O)CCN(c1nc(Cc2ccc(C)cc2)ns1)C(C)CC (stereo not drawn)	-8	-1
CC(OC1CC(=O)CC2C(=O)c3ccccc3C(=O)C12)c1ccccc1 (stereo not drawn)	-1	-3
CCC(CC)C(=O)N[C@H]1[C@H](OC(C)=O)[C@@H]2O[C@H]1c1ccccc12	0	14
CCN(CC)Cc1c(O)ccc2c(=O)c(-c3ccccc3OC)coc12	-1	-4
O=C1N(C2CCCCC2)C(c2ccccc2)=NC1(Nc1ncccn1)C(F)(F)F (stereo not drawn)	-11	-17
CCc1ccc(CN2CCC(n3nccc3NC(=O)Cc3ccccc3)CC2)o1	3	0
COc1ccc(-c2cc(C(=O)NCCc3ccccn3)c(C)n2-c2ccc(C)cc2)cc1	-4	5
Cc1c(C(=O)NCCC2CCCN(C)C2)[nH]c2ccc(F)cc12 (stereo not drawn)	11	7
COc1ccc2c(c1)CCC(=Cc1ccccc1Br)C2=O	2	-1
Cc1ccc(-c2cc3c(SCC(=O)Nc4ccc(C)c(F)c4)nccn3n2)cc1	2	-4
CC(CNC(=O)c1cnc2c(c1)c(=O)n(C)c(=O)n2C)c1ccccc1 (stereo not drawn)	0	-1
O=C1C(NS(=O)(=O)c2ccccc2)=C(n2ccnc2)C(=O)c2ccccc21	13	9
CCc1nc(CN2CCN(CCn3cncn3)CC2)c(C)[nH]1	8	5
CCOc1ccc(N2CCCn3c2nc2c3c(=O)[nH]c(=O)n2C)cc1	2	13
COC(=O)c1ccc(C(=O)NCc2ccc(-c3ncc(-c4cc(OC)ccc4OC)[nH]3)cc2)cc1	-7	-10
CC1CN(C(=O)OC(C)(C)C)CCN1C(=O)c1cccc(Cl)n1 (stereo not drawn)	3	3
CCn1c(C2CCCN(C(=O)CCc3nc4ccccc4[nH]3)C2)n[nH]c1=O (stereo not drawn)	9	5
Nc1nc(C(=O)O)nn1C12CC3CC(CC(C3)C1)C2	2	0
COCc1c(Br)c(C)nc(OCC(=O)N/N=C\c2cc(C)n(-c3ccc(I)c(C)c3)c2C)c1C#N	-2	5
CCS(=O)(=O)NCCn1c(-c2ccccc2C)noc1=O	4	2
COc1cc2c(cc1CNC(=O)C1CC(=O)N(CC(C)C)C1)CCC2 (stereo not drawn)	-5	-12
Cc1cccc2oc(CNC(=O)CSCc3ccccc3Cl)nc12	24	8
COCCCN(Cc1csc(COc2cccc(C)c2)n1)C(=O)c1ccc(C)cc1	-9	-4
COc1cc(OC)nc(C(NC(=O)C2CCN(CCc3c[nH]c4ccccc34)CC2)c2ccccc2C)n1 (stereo not drawn)	6	7
CC(C)C1NC(=O)N(Cc2ccc(Cl)c(Cl)c2)C1=O (stereo not drawn)	-2	-4
O=C(NCCCN1CCOCC1)c1ccc(Oc2ccc(F)cc2)cc1	0	-2
O=S(=O)(c1ccc(C(F)(F)F)cc1Cl)N1CCN(c2nccc(-c3ccc(-n4ccnc4)cc3)n2)CC1	1	7
CCC(=O)N1CCN(c2nccc(-c3cccc(C(F)(F)F)c3)n2)CC1	-1	6

Entries of single compounds as entered above. Order of screens: NPYLR7 ag	NPYLR7 ag max-min
Listed for `CC1CN(C(=O)OC(C)(C)C)CCN1C(=O)c1cccc(Cl)n1` (stereo not drawn) → 3	3
Listed for `COc1cc2c(cc1CNC(=O)C1CC(=O)N(CC(C)C)C1)CCC2` (stereo not drawn) → -5	-12
Listed for `COc1cc(OC)nc(C(NC(=O)C2CCN(CCc3c[nH]c4ccccc34)CC2)c2ccccc2C)n1` (stereo not drawn) → 6	7
Listed for `CCS(=O)(=O)NCCn1c(-c2ccccc2C)noc1=O` → 4	2
Listed for `CCOc1ccc(N2CCCn3c2nc2c3c(=O)[nH]c(=O)n2C)cc1` → 2	13

3 neighbouring compounds from above:
SMILES	NPYLR7 ag	NPYLR7 ag max-min
CCOc1ccc(N2CCCn3c2nc2c3c(=O)[nH]c(=O)n2C)cc1	2	13
COC(=O)c1ccc(C(=O)NCc2ccc(-c3ncc(-c4cc(OC)ccc4OC)[nH]3)cc2)cc1	-7	-10
CC1CN(C(=O)OC(C)(C)C)CCN1C(=O)c1cccc(Cl)n1 (stereo not drawn)	3	3

Going on with the list.
SMILES	NPYLR7 ag	NPYLR7 ag max-min
CN(Cc1ccccc1)c1ncccc1CNC(=O)c1ccccc1F	-4	-7
COc1cn(CC(N)=O)c(CN2CCN(C)CC2)cc1=O	1	-1
O=C(NCc1ccccn1)c1ccc(Nc2c(Oc3ccccc3)cnn(Cc3ccccc3)c2=O)cc1	9	6
CC(=O)c1ccc(NC(=O)N(C)c2c(C)nc3ccc(C(=O)N4CCN(C(C)=O)CC4)cn23)cc1	0	23
CC1(C(=O)c2ccccc2)C2c3c(ccc4ccccc34)OC(=O)C21C(=O)N1CCOCC1 (stereo not drawn)	-12	-19
O=C(OC/C=C/c1ccccc1)c1cccc(Br)c1	9	15
C/C(=N\O)c1ccc(OCCO)cc1	1	1
CCCC1C(C#N)C(=N)SC(=N)C1C#N (stereo not drawn)	2&19	6&18
CCn1nccc1-c1n[nH]c(=O)n1CC	7	5
CCN(CC)CCCC(C)NC(=O)c1c(C)noc1-c1ccccc1Cl (stereo not drawn)	9	12
C=CCn1c(CCNC(=O)C2CCCCC2)nc2ccccc21	-7	-6
COC(=O)c1ccccc1CSC(=NC#N)SC	-10	-10
Nc1nc(SC2c3cccc4cccc(c34)C2NS(=O)(=O)c2ccccc2)n[nH]1 (stereo not drawn)	1	0
c1ccc(-c2ccccc2-n2cnnc2)cc1	1	-1
CCc1nc2ccc(C(=O)NCc3ccc4c(c3)OCO4)cn2c1N(C)Cc1ccc(N(C)C)cc1	9	2

Three of the compounds above, in CSV form.
SMILES,NPYLR7 ag,NPYLR7 ag max-min
O=C(OC/C=C/c1ccccc1)c1cccc(Br)c1,9,15
C/C(=N\O)c1ccc(OCCO)cc1,1,1
CCCC1C(C#N)C(=N)SC(=N)C1C#N (stereo not drawn),2&19,6&18

(continued)
SMILES	NPYLR7 ag	NPYLR7 ag max-min
O=C(CCN(Cc1ccccc1)c1nc(-c2ccc(F)cc2)nc2ccccc12)NCc1cccc(C(F)(F)F)c1	29	29
Cc1cc2nc(CNC(=O)c3cc(CN4CCOCC4)on3)[nH]c2cc1C	34	24
Cc1nc(CSc2nnc(NC3CC3)s2)cs1	-4	8
CCOC(=O)c1cc(C#N)c(C)nc1N1CCN(CC(=O)Nc2sccc2C#N)CC1	-2	-4
CC(=O)Nc1cncc(-c2ccccc2CO)n1	1	1
Cn1ccnc1-c1ccc(NCCc2cnn(-c3ccccc3)c2)nn1	14	7
COCCCN(CC(=O)N1CCc2sccc2C1c1ccc(Cl)cc1Cl)S(=O)(=O)c1c(C)cc(C)cc1C (stereo not drawn)	-2	3
OC(CC1CCC1)(CC1CCC1)c1ccc(CN(Cc2ccco2)CC2CCCO2)o1 (stereo not drawn)	15	13
O=C(c1ccc2ncccc2c1)N1CCc2c(cnn2-c2ccc(Cl)cc2)C1	2	19
O=C1NC(=S)N/C1=C/c1cccc([N+](=O)[O-])c1O	16	5
O=C(C=Cc1ccc(Cl)cc1Cl)N=C1N=C2C=CC(Br)=CN2Cc2ccccc21	-5	-10
CCN(CC)S(=O)(=O)c1cc(C(=O)Nc2ccc(OC)cc2)ccc1C	-13	-17
Cc1nn(C)cc1C(C)n1ccnc1-c1ccccc1Cn1cccn1 (stereo not drawn)	4	5
C=C(C)Cc1c(COC)nc(N)[nH]c1=O	1	-3
COc1cc(-c2cc(C(=O)NCCc3cccc(C(F)(F)F)c3)c3ccccc3n2)cc(OC)c1OC	25	9
CCCCOc1ccc(C(=O)Nc2cc(C)nn2-c2nc(CCC)cc(=O)[nH]2)cc1	6	-1
COc1ccc2nc(C)cc(Oc3ccc4c(c3)OCO4)c2c1	1	3
Cc1ccc(Cn2c(CO)c[nH]c2=S)cc1	-3	-5
Cc1ccc(C(=O)N(CCCN(C)C)c2nc3cc4c(cc3s2)OCO4)cc1	3	1
N#CC1(NC(=O)COC(=O)c2nccnc2N)CCCCC1	18	12
CCOc1ccc(-c2n[nH]c(C(=O)N/N=C\c3ccccn3)c2C)cc1	6	11
COCCN1CCCC2(CCN(c3nc4ccccc4o3)C2)C1 (stereo not drawn)	5	2
O=C(CN1CCCCCCC1)Nc1ccc(NC2CCOC2=O)cc1 (stereo not drawn)	-3	4
Cc1ccc(Cc2nsc(N3CCC(C(=O)N4CCN(c5cccc(C(F)(F)F)c5)CC4)CC3)n2)cc1	-9	-14
COc1cc(C(=O)N2CCC(C(=O)NC3CCCC[C@H]3NC(=O)c3ccccc3C)CC2)cc(OC)c1OC (stereo partly drawn)	2	5
COc1ccc(CCNC(=O)c2ccc(-c3cc(-c4cccc(C(F)(F)F)c4)n[nH]3)cc2)cc1	-2	7
CCOC(=O)N1CCN(C(=O)CC(c2ccc(Cl)c(C(F)(F)F)c2)c2c[nH]c3ccccc23)CC1 (stereo not drawn)	0	15
Cn1c(N)nnc1SCc1nc2ccccc2n1C	8	5
Cc1ccc(NC(=O)CSc2ccc(-c3sc(-c4cccnc4)nc3C)nn2)cc1F	1	2
C#CCSc1nc(-c2ccccc2)cc(-c2ccccc2)c1C#N	-2	-4
Cc1cc(C(=O)N(CCn2cccn2)c2nc3c(F)cccc3s2)on1	-16	-24
C=CCn1c(N2CCN(Cc3ccccc3Cl)CC2)nc2c1c(=O)[nH]c(=O)n2C	20	15
CSCCC(=O)NC1CCCN(c2ncccn2)C1 (stereo not drawn)	23	11
